Assay outcomes from PubChem BioAssay.
ugtP null kill – growth inhibition of S. aureus ugtP deletion strain | 330,000 tested, 0.54% active | growth inhibition, % (no concentration beside the values) | AID 1259309 | S. aureus RN4220 ugtP deletion, OD600 growth, 16 h; some inactives read as strong as hits;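 active = z-score under -3 and OD600 up to 0.15 on both plates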;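 also: plate controls were untreated wells for no effect and antibiotic for full effect; wells of about 80 µL received 100 nL stock; the first replicate is given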
Mtb hypoxia rep – inhibitors of hypoxia-regulated fluorescent reporter in Mycobacterium tuberculosis; M. tuberculosis hypoxia-regulated fluorescent reporter, fluorescence; fluorescence inhibition, % (no concentration beside the values); 300,000 tested, 0.1% active; AID 1159583;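 active = 35 to 45% if threefold the growth effect, above 45% if 1.5-fold the growth effect; inactive = the rest, general growth blockers included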;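 also: wells of about 50 µL received 100 nL stock; 0% = vehicle wells and 100% = reference inhibitor wells; whole bacteria with a GFP reporter of the hypoxia response; strong numbers were not always called active; many hits fall short of the cut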
BJeLR viability – kills HRASV12-expressing BJeLR cells; BJeLR (HRASV12) viability, CellTiter-Glo ATP luminescence, 48 h; reference of the scale not given here; inhibition, % (no concentration beside the values); 300,000 tested, 0.17% active;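 active = replicate mean above 50%; inconclusive = above 50% but judged a plate artefact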;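 also: 50 nL library stock added to about 25 µL; numbers are from one replicate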
RN4220 kill – kills Staphylococcus aureus RN4220. AID 1259311. 330,000 tested, 0.33% active. inhibition, % (no concentration beside the values). S. aureus RN4220 growth, OD600, 16 h;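 active = z-score of -3 or lower and OD600 up to 0.18 on both plates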;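 also: plate controls were untreated cells for no effect and reference antibiotic for full effect; stock transfer was 100 nL into about 80 µL; one replicate is shown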
Autofluor counter – counter-screen for toxin protease inhibitors: compound fluorescence. compound autofluorescence counterscreen, microsphere flow cytometry; active compounds read high. fluorescence intensity (test concentration not listed). 360,000 tested, 3.1% active;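 active = at least 3 SD above the mean of all compounds, about 16000 in these data; inconclusive = too few beads counted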;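 also: 100 nL of 1 mM stock went into each well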
PrP UTR inh – inhibition of PrP 5' UTR reporter expression | cell-based PrP 5' UTR mRNA reporter, plate reader | inhibition, % (test concentration not listed) | 340,000 tested, 0.35% active | AID 488862;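 active = every replicate at 50% or more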;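 also: 0 = median of the neutral control wells; tested in H4 reporter cells; numbers are from one replicate; inactives centre near -14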
Mtb hypoxia rep growth – recorded beside Mtb hypoxia rep, whose call it bears; growth inhibition, %; measured here: M. tuberculosis growth (absorbance);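 0% = vehicle and 100% = reference antibiotic; read after six days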
The depositor's hits bear a star; ? = inconclusive; / = not tested or not shown.

SMILES	ugtP null kill	Mtb hypoxia rep	Mtb hypoxia rep growth	BJeLR viability	RN4220 kill	Autofluor counter	PrP UTR inh
CC(NC(=O)NNC(=O)c1ccncc1)(C(F)(F)F)C(F)(F)F	8	0	7	5	6.1	3252	-6
Cc1ccc(CNC(=O)C(=O)NCC2OCCN2C(=O)c2ccc(Cl)cc2)cc1 (stereo not given)	-7	2	11	2	-5.6	6012	-22
COc1cc(C=NNc2nc3ccccc3[nH]c2=O)ccc1O	7	8	1	/	1.3	/	/
O=C(c1ccccc1)c1sc(N2CCCCCC2)nc1-c1ccccc1	69	/	/	2	3.9	1944	-14
Cc1cc2oc(C(=O)Nc3ccc(S(=O)(=O)Nc4ncccn4)cc3)cc(=O)c2cc1Cl	2	12	16	8	1.7	5256	-11
CC(=O)c1cccc(NC(=O)C=C(C)C)c1	13	0	-4	-6	4.4	6491	-29
O=C(CSc1nc2ccccc2c(=O)n1-c1ccccc1Cl)NCC1CCCO1 (stereo not given)	8	4	-13	/	3.1	6263	-16
CCOC(=O)NN=C/C=C/c1ccccc1[N+](=O)[O-]	2	2	3	/	7.0	/	/
CCOC(=O)N1CCN(c2nc(-c3cccs3)nc3ccccc23)CC1	-3	-4	16	-10	8.1	3875	-2
Cc1nnc(C)n1/N=C/c1ccccc1	/	/	/	3	/	8696	-36
COc1ccc(C=NNC(=O)C2CCN(c3ncc(C(F)(F)F)cc3Cl)CC2)cc1	-5	2	2	/	2.6	/	/
COc1cccc2cc(-c3cc(=O)oc4cc(C)c(OCC(C)=O)cc34)oc12	-4	3	1	-3	2.4	4336	-3
N#C/C(=N\Nc1ccc(Cl)cc1)C(N)=S	/	/	/	20	/	4326	-28
Cc1ccccc1NC(=O)CN1C(=O)c2ccccc2C1=O	3	-3	0	-4	4.7	3088	-15
O=C(CC(=O)N/N=C\c1c(Cl)cccc1Cl)NCc1ccccc1	/	/	/	-6	/	6314	-14
O=C(Nc1cccc(Cl)c1)c1ccc(=O)[nH]n1	4	13	8	0	3.0	3664	-10
O=C(NCCC1=CCCCC1)C1CCN(S(=O)(=O)c2cccc(C(F)(F)F)c2)CC1	-9	3	2	/	-1.8	8540	-8
CC(O)(Cc1cccnc1)c1cccs1 (stereo not given)	2	23	10	/	3.9	4137	-21
CCCc1cc(C(=O)Nc2cc(Cl)ccc2O)no1	-3	10	0	-8	12	5748	-41
Cc1ccc(S(=O)(=O)N(C)CC(=O)Nc2ccccc2)cc1	-7	-3	-11	4	-5.7	9741	-28
CC/C(=N\NC(=O)c1cccnc1)c1ccc2c(c1)OCCO2	/	/	/	-4	/	4778	-11
C=CCc1cccc(C=NNC(=O)C[n+]2ccccc2)c1O	3	2	-5	/	5.9	/	/
O=C(c1cccc(NS(=O)(=O)c2cccc(C(F)(F)F)c2)c1)N1CCOCC1	-10	-10	-1	3	-2.5	5737	-47
C=CCc1c(C)[nH]c(=O)[nH]c1=O	-1	6	0	3	0.5	4590	8
C[C@]12C=CC(=O)C=C1CCC1C3CC[C@](O)(C(=O)CO)[C@@]3(C)CC3OC312 (stereo not given in full)	0	6	4	-7	2.5	2455	-17
CCn1cc(/C=C(\NC(=O)c2ccc(OC)c(OC)c2)C(=O)NCCCN2CCOCC2)c2ccccc21	-1	-2	5	-9	-0.4	4642	42
C/C(=N\NC(=O)c1c(C)nc2ccccn12)c1ccco1	/	/	/	0	/	2602	-23
O=C(c1cnc(-c2ccc(Cl)cc2)s1)c1ccc(Cl)cc1Cl	-9	6	1	3	2.6	16515*	-20
Cc1ccccc1C(=O)N1CCN(c2ccc(NC(=O)c3cccs3)cc2)CC1	0	-2	8	7	-5.3	4676	3
CCn1cc(C(=O)N2CCOCC2)c2ccccc21	2	-7	1	2	-0.2	4062	-8

Part of the list above in order of formula weight, low to high:
SMILES	ugtP null kill	Mtb hypoxia rep	Mtb hypoxia rep growth	BJeLR viability	RN4220 kill	Autofluor counter	PrP UTR inh
C=CCc1c(C)[nH]c(=O)[nH]c1=O	-1	6	0	3	0.5	4590	8
CCn1cc(C(=O)N2CCOCC2)c2ccccc21	2	-7	1	2	-0.2	4062	-8
C[C@]12C=CC(=O)C=C1CCC1C3CC[C@](O)(C(=O)CO)[C@@]3(C)CC3OC312 (stereo not given in full)	0	6	4	-7	2.5	2455	-17
Cc1ccccc1C(=O)N1CCN(c2ccc(NC(=O)c3cccs3)cc2)CC1	0	-2	8	7	-5.3	4676	3
CCn1cc(/C=C(\NC(=O)c2ccc(OC)c(OC)c2)C(=O)NCCCN2CCOCC2)c2ccccc21	-1	-2	5	-9	-0.4	4642	42

New compounds follow
SMILES	ugtP null kill	Mtb hypoxia rep	Mtb hypoxia rep growth	BJeLR viability	RN4220 kill	Autofluor counter	PrP UTR inh
Cn1c(=O)c2c(nc(CN3CCC(C(N)=O)CC3)n2CCCc2ccccc2)n(C)c1=O	3	6	3	-5	0.6	5253	-11
C[C@H]1CN=C(N(C)C)N1CCCCc1ccccc1	15	9	7	/	12	3266	-18
CC(C)[C@H](NC(=O)c1nn(Cc2ccccc2)c(=O)c2ccccc12)C(=O)O	7	6	10	5	1.8	4092	-25
CC(C)C(C(=O)N1CCNCC1)n1cc(CCO)nn1 (stereo not given)	-6	-6	8	/	0.1	/	/
O=C1NN(c2ccccc2)C(=O)/C1=C\c1ccccc1	4	1	1	-2	1.2	3301	-9
CC1Cc2ccccc2N1C(=O)CN1CCC(C(N)=O)CC1 (stereo not given)	7	9	0	-6	4.9	3839	-35
Cn1c(N)c(C(=O)COC(=O)COc2ccc(Br)cc2)c(=O)n(C)c1=O	2	5	0	/	9.4	4082	-39
Cc1ccc(C(=O)/C=C/C(=O)c2ccc(C)cc2)cc1	-15	-5	6	4	6.1	4056	-23
Cc1c(C)c2ccc(OCC(=O)NC(Cc3c[nH]c4ccc(O)cc34)C(=O)O)c(C)c2oc1=O (stereo not given)	7	/	/	1	-0.9	5699	-19
O=C(Cn1cc(C(F)(F)F)cc(Cl)c1=O)NCc1ccc(Cl)cc1Cl	3	-5	-6	-14	5.5	6205	-17
c1cnc(Sc2ccc3nnnn3n2)nc1	-5	-7	0	-4	1.9	4174	-11
Brc1ccc(NCc2nnc3n2CCCCC3)cc1	1	-8	-3	2	1.9	11541	-10
COc1cccc(NC(=O)N2CCCC2C(=O)NCC(C)C)c1 (stereo not given)	0	-3	4	-3	4.2	4439	6
CCSc1nnc(NC(=O)CSc2nc3c(cc2C#N)CCCC3)s1	12	3	-10	-5	31	6884	-45
CC(C)CCNC(=O)C(c1ccco1)N(CC1CCCO1)C(=O)Cn1nnc2ccccc21 (stereo not given)	-3	25	-15	1	-15	3128	-21
Cc1cc(N2CCN(c3ccccc3)CC2)nc(-c2ccccc2)n1	17	1	0	1	-1.3	3486	-3
CSc1nsc(SCC(=O)Nc2ccc(OC(C)=O)cc2)n1	6	12	28	-3	0.5	4735	-52
O=C(C[n+]1ccccc1)NN=Cc1ccc(Cl)c(Cl)c1	7	9	7	/	-1.2	/	/
Cc1cc(C)cc(-n2ncc3c2CCCC3NC(=O)c2ccccc2N2CCOCC2)c1 (stereo not given)	1	7	6	3	7.3	6377	-16
CC(=O)COc1cc2c(-c3cc4ccccc4o3)cc(=O)oc2cc1C	-7	4	-1	10	4.5	5559	-6
COCCn1c(SCC(=O)Nc2ccc(S(=O)(=O)N(C)C)cc2)nc2ccccc21	/	/	/	-8	/	2801	-12
NC(=O)c1csc(-c2ccncc2)n1	12	5	-6	-11	2.4	5305	-13
CC1CCCCN1C(=O)c1cnn2c(C(F)(F)F)cc(-c3ccco3)nc12 (stereo not given)	-4	/	/	-5	-3.2	4992	-25
CCC(c1nnnn1Cc1ccccc1)N1CCN(c2ccccc2)CC1 (stereo not given)	1	-13	2	9	16	3421	1
CC1CN(C(=O)c2cccn(Cc3c(Cl)cccc3Cl)c2=O)CC(C)O1 (stereo not given)	2	18	11	3	4.9	4154	-27
O=C(O)C(C(O)c1ccc([N+](=O)[O-])cc1)[n+]1ccccc1 (stereo not given)	-2	4	9	-2	-18	3782	-15
CCOc1ccc(/C=C/C(=O)c2c(O)c3ccccc3oc2=O)cc1	92*	-1	9	-9	-4.6	3038	-10
C=CCn1c(SC)nccc1=O	3	12	11	/	1.0	3608	-12
CC(=O)N(C1=C(Cl)C(=O)c2ccccc2C1=O)C1CCCCC1	21	2	-14	33	17	3650	-41
Nc1ccc(Nc2ccccc2)cc1	-9	17	22	2	2.0	5744	-11
Cc1nc(NC(=O)/C=C/c2ccccc2)sc1C(=O)N(C)C	8	8	5	-4	3.5	2026	-59
C#CCCOC(=O)N1C2=NC(C(=O)OC)=C(C(=O)OC)C3N(CC=C)c4ccccc4[C@]23CC1C(=O)OC (stereo not given in full)	-3	-1	9	/	3.0	/	/
CC(=O)c1cccc(S(=O)(=O)NC2CC2)c1	-1	-3	-16	-4	-6.7	2859	-16
O=C(COc1ccc(Cl)cc1Br)N1CCN(c2ncccn2)CC1	-5	1	6	/	-0.6	?	0
O=C1CCC(C(=O)N2CCSCC2)CN1Cc1cccc(C(F)(F)F)c1 (stereo not given)	9	4	-7	-1	-0.5	6078	-14
CN(C)CCCN=Cc1c(O)n(Cc2ccco2)c(=O)[nH]c1=O	6	4	8	24	8.5	4148	-17
CC(C)CC(CC(C)C)=NNC(=O)c1ccc(CSc2nncn2C)cc1	9	13	9	17	6.3	4208	-20
CCN1CCN(c2cc(C)c3cc(NC(=S)N4CC(C)CC(C)C4)ccc3n2)CC1 (stereo not given)	9	16	8	12	3.4	6448	-10
COc1ccc(CN(CCC(C)C)S(=O)(=O)c2ccccc2Br)cc1	80	-3	-1	/	1.7	3197	-3
CCCn1nc(NS(=O)(=O)c2ccccc2[N+](=O)[O-])c2cc3ccccc3nc21	0	8	8	9	18	5698	-22
COc1ccc(N2CCN(C(=O)CCCn3c(=O)c4cccn4c4cccnc43)CC2)cc1	6	1	1	2	-7.1	4803	-19
CCOC(=O)C1=C(NC(=S)NC(=O)c2ccccc2)c2ccccc2CC1(C)CC (stereo not given)	-25	-3	7	15	-2.6	11111	-10
COc1ccc(S(=O)(=O)N2CCOC23CCN(C(=O)c2c(F)cccc2Cl)CC3)cc1	8	3	3	-1	4.7	5603	-14
COc1ccc(C(=O)N2CCC(C(=O)N3CCN(c4ccc(OC)cc4)CC3)CC2)cc1	16	-17	-9	-2	-3.7	5427	-14
Fc1ccccc1C1c2cccn2CCN1C(=S)Nc1ccc(Br)cc1 (stereo not given)	-7	16	6	-5	24	3324	1
Cc1ccc(CNC(=O)CS(=O)Cc2nc(-c3ccccc3F)oc2C)cc1 (stereo not given)	7	17	9	7	6.7	5175	-18
COc1ccc2cc3cc(C(=O)NCc4ccccn4)oc3nc2c1	2	/	/	4	-0.1	4348	-11
CCc1nnc(NC(=O)c2ccc(S(=O)(=O)N(CCOC)CCOC)cc2)s1	-1	-7	-3	6	-0.5	6162	-17
CC(=O)Nc1ccc(NC(=O)CN(c2cccc(C(C)=O)c2)S(C)(=O)=O)cc1	3	1	-1	2	3.6	4595	-18
COCCCNC(=O)CNC(=S)N(Cc1ccc(F)cc1)C1CCCCC1	-2	0	4	-4	4.7	11477	/
O=C(NN=C/C(Br)=C/c1ccccc1)c1cccs1	-9	0	-4	/	-13	/	/
O=C(CSc1n[nH]c(-c2ccc(Cl)cc2Cl)n1)Nc1ccccn1	-5	-1	13	6	16	2497	-14
O=[N+]([O-])c1cc([N+](=O)[O-])c2nonc2c1Nc1ccccc1O	7	/	/	1	16	4066	-26
COc1nc(Nc2ccc(-c3nc4ccccc4o3)cc2)nc(N2CCOCC2)n1	-7	/	/	6	2.1	4687	-14
COCOc1ccc(C=O)cc1OCOC	1	/	/	1	1.8	5565	-3
COC(=O)c1ccccc1-n1c(C)nc(=O)c(-c2ccccc2)c1C	8	16	-3	-2	2.5	4335	-13

Compound profiles, as listed above. Order of values: ugtP null kill | Mtb hypoxia rep | Mtb hypoxia rep growth | BJeLR viability | RN4220 kill | Autofluor counter | PrP UTR inh
`O=C(CSc1n[nH]c(-c2ccc(Cl)cc2Cl)n1)Nc1ccccn1` reads -5 | -1 | 13 | 6 | 16 | 2497 | -14
`CC(C)[C@H](NC(=O)c1nn(Cc2ccccc2)c(=O)c2ccccc12)C(=O)O` reads 7 | 6 | 10 | 5 | 1.8 | 4092 | -25
